Screening data (PubChem)
GIV-Gai inh = inhibitors of GIV peptide binding to Galpha-i3, primary screen, biochemical, fluorescence polarization, FITC-GIV GBA peptide, rat Galphai3. Guanine nucleotide-binding protein G(i) subunit alpha-3 (Rattus norvegicus), P08753. 90 min; stronger effect = lower value; scaled: aluminum fluoride 0%, vehicle 100%. percent of control (FP), % (test concentration not listed). 0.42% of 210,000 active. AID 1224905, 2016;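 active = replicate mean at 85% of control or lower, very high polarization wells dropped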;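 note: wells of about 15 µL received 100 nL stock; the first replicate is given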
Target sequence (P08753 whole entry, looked up): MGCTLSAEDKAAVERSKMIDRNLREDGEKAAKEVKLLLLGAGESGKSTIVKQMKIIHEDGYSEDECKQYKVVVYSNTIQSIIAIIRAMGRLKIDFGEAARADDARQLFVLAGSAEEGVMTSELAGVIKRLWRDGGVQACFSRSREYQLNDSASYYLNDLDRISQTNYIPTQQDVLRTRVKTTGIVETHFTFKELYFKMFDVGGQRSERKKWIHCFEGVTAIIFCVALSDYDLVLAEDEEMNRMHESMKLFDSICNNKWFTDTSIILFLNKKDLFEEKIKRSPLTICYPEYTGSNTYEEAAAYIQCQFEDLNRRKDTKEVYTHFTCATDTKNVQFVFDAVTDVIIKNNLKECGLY
Sa growth 42C = S. aureus growth inhibition at 42 and 30 °C, primary screen, LtaS inhibitor project, RN4220, two temperatures; OD600, 20 h, 42 °C; stronger effect = lower value; relative growth, % (no concentration beside the values); 0.53% of 170,000 active;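 active = growth at 42 °C up to 50% and 20 or more points under that at 30 °C, or under 10% at both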;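 note: 300 nL library stock went into each well; scaled to the means of positive and negative controls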
HCMV NEC inh = inhibitors of HCMV UL50-UL53 interaction, biochemical, HTRF. 0.15% of 190,000 active. normalized percent inhibition. HCMV UL50-UL53 nuclear egress complex (human cytomegalovirus). AID 1918969, 2023. inhibition, % (test concentration not listed);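 active = both replicates at 50% or more, plus weaker picks with an unusually low signal ratio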;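 note: stock transfer was 100 nL into about 20 µL; 0% = negative control wells and 100% = wells with untagged competitor protein; inactives centre near -12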
Sa growth 42C second temp = also measured in Sa growth 42C; calls as there; relative growth, %; measured here: growth at 30 °C;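 optical density after 20 h as mean of two plates; 100% = untreated growth and lower means inhibition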
* marks the source's active call; other numbers are inactive results; nt = not tested or not shown; & = joins results of further samples.

SMILES | GIV-Gai inh | Sa growth 42C | Sa growth 42C second temp | HCMV NEC inh
Cc1cc(-n2c(C)cc(/C=C/C(=O)N3CCN(S(=O)(=O)Cc4ccccc4)CC3)c2C)no1 | nt | 71 | 86 | -26
CCNC(=O)COc1ccc(-c2nnco2)cc1 | nt | 92 | 96 | -2
CCN(Cc1ccccc1)C(=O)c1ccc2c(c1)NC(=O)c1ccccc1S2 | 105 | 69 | 37 | -2
Cc1nn(-c2ccccc2)c2sc(C(=O)Nc3cccc(O)c3)cc12 | 105 | 107 | 87 | -10
O=C(Oc1ccccc1N1CCCCC1)C1CCN(c2nccc(C(F)(F)F)n2)CC1 | 106 | 111 | 92 | -14
Nc1cccc(F)c1CNCC(O)COc1ccc(Cl)c(Cl)c1 (stereo not given) | 100 | 115 | 97 | -2
Cc1ccc(CNc2nc3c(S(=O)(=O)c4ccc(C)c(C)c4)nnn3c3ccc(Cl)cc23)cc1 | 98 | 98 | 84 | -32
CC1=NN(C(=O)C2CCCCC2)C(O)(c2ccccc2)C1 (stereo not given) | 99 | 102 | 98 | -35
O=C(c1cc2ccccc2oc1=O)N(Cc1ccco1)C1CCS(=O)(=O)C1 (stereo not given) | 102 | 90 | 94 | -19
Cc1ccccc1-c1nnc(SCC(=O)N2CCCc3ccccc32)o1 | 104 | 109 | 73 | 0
COc1ccc(-c2cc(C(F)(F)F)nc(S(=O)(=O)CCCC(=O)Nc3ccc4c(c3)OCO4)n2)cc1OC | 108 | 50 | 41 | -28
CCOC(=O)c1sc2nc(C)n(CC(=O)Nc3ccc(OC)cc3OC)c(=O)c2c1C | 104 | nt | nt | -7
CCN(C(=O)Cn1c(=O)n(CC2CCC(C(=O)NC)CC2)c(=O)c2sccc21)c1ccccc1 (stereo not given) | 101 | 70 | 87 | nt
O=C(NCc1nc(-c2ccccc2F)no1)c1ccc2c(c1)OCO2 | 104 | 103 | 88 | -16
O=C1Cc2ccccc2C(=O)N1CCc1ccccc1 | 105 | 115 | 95 | 11
CCCCN(CC)CCNc1ncnc2onc(-c3ccc(Cl)cc3)c12 | 100 | 112 | 86 | -36
O=C(OCC1CCCO1)c1ccc2c(c1)N(Cc1ccccc1F)C(=O)c1ccccc1S2(=O)=O (stereo not given) | 104&103 | 104 | 94 | -2
Cc1c(C)n(C)c2ccc(C(=O)NCCc3ccc(Cl)cc3)cc12 | 106 | 84 | 97 | nt
CCCS(=O)(=O)Nc1cc(S(=O)(=O)CC)ccc1O | nt | 121 | 98 | 1
CCc1ccc(C2=C(C)C(N3CCC(C(=O)Nc4ccc(F)cc4)CC3)=NS2(=O)=O)cc1 | 101 | 79 | 90 | nt
COc1ccc(OC)c(Nc2ncc3c(n2)CCN(Cc2cc(OC)c(OC)c(OC)c2)C3)c1 | 103 | 96 | 94 | nt
Cc1ccccc1NC(=O)Nc1ccon1 | 107 | 111 | 99 | -18
CCCCCn1cc2c(c1-c1ccccc1Cl)c(=O)n(C)c(=O)n2C | 99 | 100 | 84 | -6
CC(C)c1ccc(C2C=C(c3ccccc3)Nc3ncnn32)cc1 (stereo not given) | nt | 84 | 77 | -47
CCCN(CCC)C(=O)C1CCCN(c2ccc(-c3ccccc3)nn2)C1 (stereo not given) | 95 | nt | nt | -34
CCOC(=O)c1oc2ccccc2c1NC(=S)NC(=O)CN1C(=O)CCC1=O | 106 | 107 | 87 | -90
CCc1cccc(NC(=O)CCCn2c(=O)[nH]c3ccsc3c2=O)c1 | 111 | 90 | 90 | nt
CCN1C(=O)C(O)(CC(=O)c2ccc(F)cc2)c2ccccc21 (stereo not given) | 104 | 90 | 84 | -31
CCc1nn(CC(=O)NCCc2ccc(SC)cc2)c(=O)c2cc3sccc3n12 | 100 | 91 | 88 | 3
COC(=O)c1c(C)ncc2c1COC(C)OC2 (stereo not given) | 105 | 102 | 94 | nt
CCOC(=O)CSC1C(=O)Nc2ccccc2N=C1c1ccccc1 (stereo not given) | nt | 85 | 89 | -25
Cn1c(=O)c2ccc(C(=O)NC3CCCC3)cc2n2c(SCC(=O)c3ccc(F)cc3)nnc12 | 108 | nt | nt | -32
COc1ccc2oc(-c3ccc(C)c(NC(=O)c4ccc(N5CCCCC5)c([N+](=O)[O-])c4)c3)nc2c1 | 108 | 99 | 89 | -23
CCCN(CCC)C(=O)Cn1ncn2c(cc3ccccc32)c1=O | 99&100 | 93 | 98 | -3&-20
O=C(Nc1nc2ccccc2s1)c1ccc(S(=O)(=O)N2CCOCC2)cc1 | 112 | 101 | 98 | -5
CC1(C(=O)NC2CCCCCCC2)Cc2ccccc2C(=O)N1CCCN1CCOCC1 (stereo not given) | 95 | 97 | 90 | 0
COc1cccc2c1Oc1ncccc1N(C(=O)CCC(=O)NCc1ccc(OC(C)C)cc1)C2 | 99 | 83 | 83 | nt
COC(=O)c1ccccc1NC(=O)c1ncoc1-c1cccc(Cl)c1 | 101 | nt | nt | -10
CCOc1ccc(OCCOCCn2c(-c3ccc(Cl)cc3)nc3ccccc3c2=O)cc1 | 104 | 97 | 91 | -16
C=C1SC(Nc2ccc(OC)cc2OC)=NC1(C)C | 102 | 103 | 90 | nt
CCCNC(=O)c1ccc2c(=O)n(-c3ccc(F)cc3)c(SCC(=O)c3c[nH]c4ccccc34)nc2c1 | 115 | nt | nt | -17
CCC(=O)Nc1c(C#N)c2nc3ccccc3nc2n1CCc1ccccc1 | nt | 55 | 56 | -40
Cc1ccc(OC(=O)c2sc3ncn(C)c(=O)c3c2C)cc1 | 102 | 90 | 94 | 0
O=C(OC1CCOC1=O)c1ccc(Cl)cc1 (stereo not given) | nt | 101 | 98 | 11
Nc1cc(C(Cl)=C(Cl)Cl)c(S(N)(=O)=O)cc1S(N)(=O)=O | nt | 87 | 91 | -53&-3&-17
CN(C)CCN1C(=O)CCC1(C)C(=O)NC1CCCC1 (stereo not given) | 105 | nt | nt | -6
CN(C(=O)c1oc(=O)c2ccccc2c1-c1ccccc1)c1cccc(Cl)c1 | 98 | 98 | 88 | -36
O=C(c1noc2c1CCCCC2)N1CCN(c2cccc(Cl)c2)CC1 | 102 | 98 | 85 | nt
CC(C)C(Nc1ccc(C(F)(F)F)cn1)C(=O)O (stereo not given) | 101 | 114 | 97 | -37
CCOC(=O)C1CC(=O)OC12CCCCC2 (stereo not given) | 101 | 104 | 90 | -10
CC(=O)c1ccc(NC(=O)CSc2nnc(NC(=O)Nc3ccccc3)s2)cc1 | 99 | 128 | 90 | nt
COc1ccc(Cn2c(CCC(=O)Nc3ccccc3OC)nc3cccnc32)cc1 | 107 | 104 | 106 | 22
COc1ccc(NC(=O)c2nnc(COCC(=O)NCc3cccc(Cl)c3)s2)cc1 | 104 | nt | nt | -38
CCOC(=O)c1c(C)n(C)c2ccc(O)cc12 | 108 | 95 | 90 | -15&-5
O=c1c2ccccc2c(-c2nc(-c3ccccn3)no2)nn1-c1ccc(Br)cc1 | 110 | nt | nt | -29
Cc1oc2ncn(Cc3cc(=O)n4ccccc4n3)c(=O)c2c1C | 102 | nt | nt | -5
O=C(COc1ccc2c(c1)CCC2)NN1CCOCC1 | 106 | 103 | 104 | -15
Cc1ccc(NC(=O)C23CCC(C2)C(C)(C)C3=O)c(C)c1 (stereo not given) | 112 | 105 | 101 | -1
C=CCn1c(SCC(=O)c2ccc(C)cc2)nc2sc(CC)cc2c1=O | 107&109 | 104 | 86 | -1
Clc1ccc(C2C3CC=CC3c3cc(Cl)cc4c3N2CC2CC=CC42)cc1 (stereo not given) | 118 | nt | nt | -9
Remaining list, next part:
SMILES | GIV-Gai inh | Sa growth 42C | Sa growth 42C second temp | HCMV NEC inh
CCC(=O)Nc1nnc(S(=O)(=O)N(C)Cc2ccc(Cl)cc2)s1 | 104 | 75 | 90 | nt
O=C(NC1CCCCC1)c1cc(-c2ccco2)on1 | 108 | 91 | 85 | nt
Cc1c(C(=O)O)oc2ccc(S(=O)(=O)NCc3ccccc3)cc12 | 102 | 99 | 92 | 5
COc1ccc(C(=O)NCCSc2ccccn2)cc1 | 102 | 119 | 94 | -5
Cc1ccc(NC(=O)CSc2ncc(S(=O)(=O)c3ccc(C(C)C)cc3)c(=O)[nH]2)cc1C | 107 | 72 | 98 | -9
CCOC(=O)c1oc2ccccc2c1CN1CC(C)OC(C)C1 (stereo not given) | nt | 92 | 94 | -15
O=C(OCc1ccc(Cl)cc1Cl)C(O)c1ccccc1 (stereo not given) | 103 | 98 | 99 | -18
COc1ccc(C(=O)CSc2nccc(=O)[nH]2)cc1 | 100 | 85 | 90 | -44
Cn1c(=O)n(C)c2cc(S(=O)(=O)Nc3ccc(F)c(F)c3)ccc21 | 106 | nt | nt | -4
COc1ccc(NC(=O)C2C(=O)N(C)C3(C)CC2c2ccccc2O3)cc1 (stereo not given) | 101 | 110 | 99 | 8
CCC(CC)C(=O)Nc1cccc(C(=O)Nc2ccc3c(c2)OCCO3)c1 | 108 | 85 | 91 | -20
COc1ccc(-c2cc3c(=O)n(CC(=O)NCc4ccc5c(c4)OCO5)ccn3n2)cc1 | 101 | nt | nt | -21
Cc1cccc(CN2C(=O)N(c3ccc(C(C)C)cc3)S(=O)(=O)c3ccccc32)c1 | 108 | 117 | 90 | nt
CNC(=O)CCCN1C(=O)CCn2nc(-c3cn(C)c4ccccc34)cc21 | 106 | 108 | 102 | nt
O=C(O)c1cc(N2CCN(CC(=O)N3CCCCC3)CC2)ccc1NC(=O)C1CC1 | 103 | nt | nt | 6
N#Cc1c(NC(=O)c2cc(C3CC3)on2)sc2c1CCC2 | 103 | 100 | 88 | 14
CCOc1nc(N2CCCCC2)nc(-n2cc(-c3ccccc3)nn2)n1 | 103 | 107 | 82 | -2
CCOC(=O)CCc1c(CC(=O)OCC)c[nH]c1/C=N/O | 107 | 141 | 86 | -21
Cc1ccc(C(c2ccccc2)c2c(C)[nH]c3ccccc23)s1 (stereo not given) | 103 | 126 | 102 | nt
O=C(O)CCSc1nnnn1-c1ccccc1 | 99 | 112 | 77 | 0
COC(=O)c1ccc(-c2nc(-c3ccccc3)no2)cc1 | 107 | 103 | 96 | -27
CCCC1CC(CSc2nc3ccccc3[nH]2)OC1=O (stereo not given) | 100 | 104 | 87 | -8
Cn1c(=O)c2cc(C(=O)N3CCCC3)sc2n(C)c1=O | 104 | nt | nt | -21
CCCCS(=O)(=O)c1nc2c(cc1C#N)CCCC2 | 108 | 105 | 73 | -15
COc1ccccc1CNC(=O)CCC(=O)N1Cc2ccccc2Oc2ncccc21 | 97 | 112 | 80 | nt
CN(C(=O)Cn1c(=O)cnc2ccccc21)C1CCS(=O)(=O)C1 (stereo not given) | nt | 95 | 95 | -54
COc1ccc(-c2cc(C(F)(F)F)nc(N3CCc4ccccc4C3)n2)cc1OC | 106 | 101 | 95 | nt
CCc1nn(CC(=O)N2CCN(c3cccc(C(F)(F)F)c3)CC2)c(=O)c2cc3occc3n12 | 102 | 106 | 90 | -6
CS(=O)(=O)N(CC(=O)Nc1ccccc1)C1CCCCC1 | nt | 90 | 94 | -5
Cc1ccc(-n2nc3ccc(NC(=O)COc4ccccc4)cc3n2)cc1Cl | 108 | 94 | 89 | -64
COc1ccc(OCc2nnc3sc(-c4cc(C)on4)nn23)cc1 | 99 | nt | nt | -17
COc1cc(OC)c(OC)cc1CN1CCc2nc(N3CCN(c4ccccc4F)CC3)ncc2C1 | 106 | 91 | 92 | nt
Cc1ccc(NC(=O)c2ccc3nnc(SCC(=O)Nc4ccc(Br)cc4)n3c2)cc1 | 108 | nt | nt | 23
CCOc1ccc(NC(=S)N2CCn3cccc3C2c2ccc(OC)cc2)cc1 (stereo not given) | 111 | 86 | 78 | nt
O=c1[nH]cccc1-c1nc(-c2cccc(Cl)c2)no1 | 97 | nt | nt | -56

Of the compounds above, 12 contain an aryl thioether with sulfur outside any ring.
SMILES | GIV-Gai inh | Sa growth 42C | Sa growth 42C second temp | HCMV NEC inh
Cc1ccccc1-c1nnc(SCC(=O)N2CCCc3ccccc32)o1 | 104 | 109 | 73 | 0
CCc1nn(CC(=O)NCCc2ccc(SC)cc2)c(=O)c2cc3sccc3n12 | 100 | 91 | 88 | 3
Cn1c(=O)c2ccc(C(=O)NC3CCCC3)cc2n2c(SCC(=O)c3ccc(F)cc3)nnc12 | 108 | nt | nt | -32
CCCNC(=O)c1ccc2c(=O)n(-c3ccc(F)cc3)c(SCC(=O)c3c[nH]c4ccccc34)nc2c1 | 115 | nt | nt | -17
CC(=O)c1ccc(NC(=O)CSc2nnc(NC(=O)Nc3ccccc3)s2)cc1 | 99 | 128 | 90 | nt
C=CCn1c(SCC(=O)c2ccc(C)cc2)nc2sc(CC)cc2c1=O | 107&109 | 104 | 86 | -1
COc1ccc(C(=O)NCCSc2ccccn2)cc1 | 102 | 119 | 94 | -5
Cc1ccc(NC(=O)CSc2ncc(S(=O)(=O)c3ccc(C(C)C)cc3)c(=O)[nH]2)cc1C | 107 | 72 | 98 | -9
COc1ccc(C(=O)CSc2nccc(=O)[nH]2)cc1 | 100 | 85 | 90 | -44
O=C(O)CCSc1nnnn1-c1ccccc1 | 99 | 112 | 77 | 0
CCCC1CC(CSc2nc3ccccc3[nH]2)OC1=O (stereo not given) | 100 | 104 | 87 | -8
Cc1ccc(NC(=O)c2ccc3nnc(SCC(=O)Nc4ccc(Br)cc4)n3c2)cc1 | 108 | nt | nt | 23
